Screens from PubChem BioAssay.
GIV Gai3 FP: inhibitors of GIV peptide binding to Galpha-i3, primary screen, biochemical, fluorescence polarization, FITC-GIV GBA peptide, rat Galphai3. 90 min; stronger effect = lower value; scaled: aluminum fluoride 0%, vehicle 100%. 210,000 tested, 0.42% active. AID 1224905, 2016. Guanine nucleotide-binding protein G(i) subunit alpha-3 (Rattus norvegicus), P08753. percent of control (FP), % (test concentration not listed);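 active means replicate mean at 85% of control or lower, very high polarization wells dropped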;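 further: wells of about 15 µL received 100 nL stock; the first replicate is given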
Target sequence (P08753 whole entry, looked up): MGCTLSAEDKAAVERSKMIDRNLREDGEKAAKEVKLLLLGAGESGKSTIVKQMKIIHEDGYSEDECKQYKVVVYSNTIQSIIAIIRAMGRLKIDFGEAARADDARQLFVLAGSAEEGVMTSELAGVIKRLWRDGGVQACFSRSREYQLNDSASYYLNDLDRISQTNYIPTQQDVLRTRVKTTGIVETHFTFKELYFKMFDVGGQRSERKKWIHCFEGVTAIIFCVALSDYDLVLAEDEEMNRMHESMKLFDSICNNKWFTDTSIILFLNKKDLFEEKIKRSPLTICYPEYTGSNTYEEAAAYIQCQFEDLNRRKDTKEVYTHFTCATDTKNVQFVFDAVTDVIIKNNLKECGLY
An asterisk follows results filed as active. The list is partial. The share of hits here may be higher or lower than overall.

GIV Gai3 FP,Structure
103,CCOC(=O)C1=C(C)NC2=C(C(=O)C(C(=O)OCC)C(c3cccc(OC)c3)C2)C1c1ccc(Br)cc1 (centres undefined)
117,N#CCSc1nc2c(sc(=S)n2-c2ccccc2)c(=O)[nH]1
98,Cc1ccc(NC(=O)c2sc3ncnc(N4CCOCC4)c3c2C)cc1Cl
109,CCOc1ccccc1NC(=O)c1c(NC(=O)c2cccc(F)c2)sc2c1CCCCC2
102,COc1ccc(OC)c(-n2c(=S)[nH]c3cc(C(=O)NCc4ccccc4OC)ccc3c2=O)c1
108,Cc1ccc2c(c1)-c1c(ssc1=S)C(C)(C)N2CC(=O)c1ccc(F)cc1
107,Cc1ccc(-c2ccc(N3CCN(C)CC3)nn2)cc1S(=O)(=O)N1CCC(C)CC1
100,c1ccc(-c2nc3cc(-c4noc(-c5ccc6nc[nH]c6c5)n4)ccc3o2)cc1
107,O=S(=O)(c1cc(-c2nnc(-c3ccccc3)o2)ccc1F)N1CCOCC1
106,O=C(CSc1nc2[nH]ncc2c(=O)n1-c1ccc(Cl)cc1Cl)c1ccc(Cl)c(Cl)c1
106,COc1ccc(N2CCN(C(=O)C3CCCN(c4ccncc4)C3)CC2)cc1 (centres undefined)
122,CC(C)(C)C(=O)CN1C2=NCCN2c2ccccc21
103,CCOc1ccc(CCNC(=O)C2CC(=O)N(CC)C(=Nc3ccc(C(=O)OC)cc3)S2)cc1OCC (centres undefined)
98,CCc1ccc(NC(=O)Nc2ccc3c(c2)CCN3S(=O)(=O)c2ccccc2)cc1
106,CCCC1=C(C(=O)OCC)C(c2ccc(OC)c(OC)c2)C(C#N)=C(N)O1 (centres undefined)
106,CC(C)c1cc(C2CCCN2C(=O)c2cnn3c(C(F)(F)F)cc(-c4ccco4)nc23)on1 (centres undefined)
101,O=C(NCCc1ccccc1)Nc1ccccc1-c1cc2ccccc2[nH]1
97,CCOC(=O)c1nc(Nc2cccc(OC)c2)c2c(C)c(C)n(-c3ccccc3)c2n1
104,Cc1cc(Nc2ccccc2)nc(Nc2ccc(NS(C)(=O)=O)cc2)n1
124,O=C1/C(=C/c2ccc(-c3ccc(Br)cc3)o2)C=C(c2ccccc2)N1c1ccc(-c2ccccc2)cc1
106,CCOC(=O)c1c(NC(=O)c2ccc3c(c2)OCCO3)sc2c1CCCCC2
99,Cc1ccc(NC(=O)C2OC3OC4(CCCCC4)OC3C3OC4(CCCCC4)OC23)cc1Cl (centres undefined)
126,Cc1cc2c3c(c(N)cc(S(=O)(=O)O)c3n1)C(=O)c1ccccc1-2
111,CC1(C)CC(=O)C2=C(C1)Nc1ccc3ccccc3c1C2c1ccc(Cl)cc1 (centres undefined)
96,Cc1sc(-c2nnc(C(=O)N3CCCC3)o2)cc1S(=O)(=O)N1CCN(C)CC1

Arranged by value in GIV Gai3 FP (low to high): 3 from the list above
GIV Gai3 FP,Structure
107,Cc1ccc(-c2ccc(N3CCN(C)CC3)nn2)cc1S(=O)(=O)N1CCC(C)CC1
108,Cc1ccc2c(c1)-c1c(ssc1=S)C(C)(C)N2CC(=O)c1ccc(F)cc1
124,O=C1/C(=C/c2ccc(-c3ccc(Br)cc3)o2)C=C(c2ccccc2)N1c1ccc(-c2ccccc2)cc1

(further entries)
GIV Gai3 FP,Structure
111,O=C1N(CN2CCOCC2)c2ccccc2C12OCC(COc1ccc(Cl)cc1)O2 (centres undefined)
109,CCS(=O)(=O)c1nc2ccc(NS(=O)(=O)c3cc(F)ccc3F)cc2s1
112,COC(=O)c1cccc(-n2c3nc(=O)[nH]c(=O)c-3cc3ccccc32)c1
105,Cc1cc(NC(=O)CSc2nnc(NC(=O)NC3CCCCC3)s2)no1
99,Cc1cc(C)c(/C(O)=C2/C(=O)C(=O)N(c3ccccn3)C2c2cccnc2)c(C)c1 (centres undefined)
101,CN(C)S(=O)(=O)c1ccc(-c2nnc(C(=O)N3CCOCC3)o2)cc1
110,COc1cc(C2C3=C(CC(C)(C)CC3=O)OC3=C2C(=O)CC(C)(C)C3)ccc1OCc1ccc(Cl)cc1Cl
104,CC(=O)Nc1ccc2c(c1)OCCOCCOc1ccc(NC(C)=O)cc1OCCOCCO2
118,O=C(c1ccccc1)N1N=C(c2ccccc2)OC1c1ccccc1 (centres undefined)
103,CCOC(=O)C1=NN(c2ccc(C)cc2)C2C(=O)N(c3cccc(Cl)c3)C(=O)C12 (centres undefined)
107,Cc1cc(C)c2c(c1)c(-c1ccccc1)c(-c1ccccc1)n2CC(O)Cn1cnc(-c2ccccc2)c1-c1ccccc1 (centres undefined)
105,O=C(c1ccc2cccc(O)c2n1)N1CCCc2ccccc21
103,Nc1ncnc2oc(-c3ccoc3)c(-c3ccco3)c12
109,CCOC(=O)c1ccc(NC(=O)CSc2nc3ccccc3c(=O)n2CCc2ccc(OC)c(OC)c2)cc1
100,CC(C)c1cc(C2CCCN2Cc2ccc(F)c(Br)c2)no1 (centres undefined)
98,COc1ccc(NC(=O)c2sc(N3CCCC3=O)nc2C)cc1OC
103,Cc1sc(-c2nc(-c3ccc(F)cc3)no2)cc1S(=O)(=O)N1CCc2ccccc2C1
112,Cc1ccc(N2C(=O)CSC23C(=O)N(CN2CCCCC2)c2ccccc23)cc1Cl (centres undefined)
107,CCOCCOC(=O)C1=C(C)NC2=C(C(=O)CCC2)C1c1ccc(OC)c(OCc2ccccc2)c1 (centres undefined)
99,CN1CCN(C(=O)Cn2ccc3c(=O)n(C)c(=O)n(C)c32)CC1
109,COc1ccc(Nc2nc(Cl)nc(NCc3cccnc3)n2)cc1
99,O=C(Nc1cccc(-c2nc3ccccc3s2)c1)c1cc(=O)c2ccccc2o1
106,Cc1ccc([N+](=O)[O-])cc1S(=O)(=O)N1CCc2ccccc2C1CN1C(=O)c2ccccc2C1=O (centres undefined)
102,O=C(NC1CC(=O)N(c2ccc3c(c2)OCCO3)C1)C1CC1 (centres undefined)
101,Cc1cc(Nc2ccccc2)nc(N2CCN(C(=O)Nc3ccccc3)CC2)n1
105,COc1ccccc1NC(=O)CSc1nc2ccccc2c(=O)n1CC1CCC(C(=O)NCc2ccco2)CC1 (centres undefined)
104,O=C(CN1CCCN(Cc2cccc(F)c2)S1(=O)=O)NC1CCCC1
122,CC1(C)CC(=O)C(C(C2=C(O)CC(C)(C)CC2=O)c2ccc([N+](=O)[O-])o2)=C(O)C1
105,CCOC(=O)C1=C(C)OC(N)=C(C#N)C1c1ccc(SC)cc1 (centres undefined)
106,CN(Cc1ccccc1)S(=O)(=O)c1cccc2nonc12
104,Cc1ccc(-c2ccc(-n3nc(C)c(S(=O)(=O)NC4CCCC4)c3C)nn2)cc1
119,COc1ccc(C2C=C(c3ccc(Br)cc3)NC(=S)N2)cc1 (centres undefined)
104,CCC(C)NC(=O)C1=CSCCO1 (centres undefined)
114,COc1ccc(CNC(=O)c2cc3cc4ccc(Cl)cc4nc3o2)c(OC)c1
105,O=C(Nc1ccc2c(c1)OCCO2)c1cccc(Oc2ccnc(-c3ccc(F)cc3)n2)c1
102,Cc1ccc(NC(=O)Cn2nc3cc(C)nc(-c4ccc(Cl)cc4)n3c2=O)cc1
100,CC(C)Cn1c(=O)[nH]c2c(C(=O)N3CCC4(CC3)OCCO4)snc2c1=O
100,COc1ccc(Br)cc1S(=O)(=O)N1CCc2ccccc2C1CN1C(=O)c2ccccc2C1=O (centres undefined)
99,O=S(=O)(c1cc(-c2noc(C3CCCC3)n2)cs1)N(Cc1cccs1)C1CCCC1
112,CCCS(=O)(=O)c1nc2ccc(NS(=O)(=O)c3ccc(F)cc3)cc2s1
106,N#CC1=C(N)OC2=C(CN(Cc3ccccc3)C/C2=C\c2cccnc2)C1c1cccnc1 (centres undefined)
103,Cc1cc(C2CCCN2C(=O)c2cc(-c3cccs3)on2)on1 (centres undefined)
98,Cc1ccc(N2CC(O)(c3ccc(OC(F)F)cc3)[N+]3=C2CCCC3)cc1 (centres undefined)
99,CCCc1cc(C2CCCN2Cc2sccc2C)no1 (centres undefined)
107,O=C(NCC1CCCO1)c1cccnc1Oc1cccc(NS(=O)(=O)c2ccc(Cl)cc2)c1 (centres undefined)
101,O=S(=O)(c1cn(Cc2noc(COc3ccc(Cl)cc3)n2)cn1)N1CCOCC1
110,O=C(NCc1ccc2c(c1)OCO2)c1ccccc1NC(=O)c1nsc2ccccc12
109,COc1ccc(/C=C2\SC(=S)N(CCC(=O)Nc3cccc(C(F)(F)F)c3)C2=O)cc1OC
102,CN(CCCNC(=O)c1cccc2c1SCCC2=O)c1ccccc1
115,CCOc1ccc(-c2[nH]nc3c2C2(C(=O)Nc4ccc(C)c(Br)c42)C(C#N)=C(N)O3)cc1 (centres undefined)

Sorted by molecular weight (descending): some entries from above
GIV Gai3 FP,Structure
119,COc1ccc(C2C=C(c3ccc(Br)cc3)NC(=S)N2)cc1 (centres undefined)
99,CCCc1cc(C2CCCN2Cc2sccc2C)no1 (centres undefined)
104,CCC(C)NC(=O)C1=CSCCO1 (centres undefined)

(cont.)
GIV Gai3 FP,Structure
105,CCCCN(CC)S(=O)(=O)c1cc(C(=O)Nc2ccc(CC)cc2)ccc1F
102,CCCNC(=O)c1nc(-c2ccc(S(=O)(=O)N3CCOCC3)cc2)no1
104,Oc1ccc(Cl)cc1C1=Nc2ccccc2N=C(c2cccc(F)c2)C1
121,CCN(CC)c1nc(C)nc2sc(C(=O)Nc3cccc(Cl)c3)c(C)c12
99,Cc1nc(-c2cc(S(=O)(=O)Nc3ccc(F)c(Cl)c3)c(C)s2)sc1C
100,O=C(NCCc1csc(-c2cccs2)n1)C1CCN(C(=O)C2CC2)CC1
102,Cc1csc(-c2cc(S(=O)(=O)NCCCN3CCCc4ccccc43)c(C)s2)n1
106,O=C(NCc1ccc(F)c(Cl)c1)C1CCN(c2ncnc3c2oc2ccccc23)CC1
115,COc1cccc(N2C(=O)C(N3C(=O)c4cccc([N+](=O)[O-])c4C3=O)C2c2cccs2)c1 (centres undefined)
120,O=C(c1ccccc1)N1CCN(C2c3cccc4cccc(c34)C2NS(=O)(=O)c2ccc(Cl)cc2)CC1 (centres undefined)
111,COc1ccc(/C=C2\N=C(c3ccc(-c4ccccc4)cc3)OC2=O)cc1OC(C)=O
102,Cc1cc(N2CCCCC2)nc(Nc2ccc(NC(=O)Nc3cccc(Cl)c3)cc2)n1
106,COc1ccc(OCC(=O)Nc2cc(Cl)ccc2OCc2cc(=O)n3ccsc3n2)cc1
106,O=C(C1=C(N2CCc3ccccc32)c2ccccc2S1(=O)=O)N1CCOCC1
108,COc1ccc(-c2noc(CSc3nnc(-c4ccc5c(c4)OCCCO5)n3C)n2)cc1OC
107,COc1ccc(C2(c3ccc(O)cc3O)CC(c3ccco3)NC(=S)N2)cc1 (centres undefined)
100,Cc1noc(C)c1C1CCCN1S(=O)(=O)c1ccc(Br)s1 (centres undefined)
98,CC(=O)Nc1cc2c(C)cc(=O)oc2c2c(Nc3cccc(C)c3)coc12
104,CCc1cc(-c2csc(S(=O)(=O)Nc3ccc(C(C)C)cc3)c2)on1
113,O=C1C2C3c4ccccc4C(CO)(c4ccccc43)C2C(=O)N1c1ccc(F)cc1 (centres undefined)
110,Cc1ccccc1Cc1c(C)nc2c(C(=O)NCCCN3CCOCC3)cnn2c1C
109,CN(CC(=O)NCCC1=CCCCC1)S(=O)(=O)c1cc2c(cc1Cl)NC(=O)CO2
107,O=C(NC1CCCC1)c1ccc(Nc2ncc(-c3cccc(F)c3)cn2)cc1
112,CC(=O)N1C(=O)C2(C(C#N)=C(N)OC3=C2C(=O)CC(c2ccco2)C3)c2ccccc21 (centres undefined)
101,COc1ccc(C2C(N3C(=O)c4c(Cl)c(Cl)c(Cl)c(Cl)c4C3=O)C(=O)N2c2ccc(C)c(Cl)c2)cc1Br (centres undefined)
110,COc1cccc2cc(C(=O)Nc3ccccc3F)c(=Nc3ccc(C(=O)O)cc3)oc12
97,COc1ccc(CCNC(=O)c2sc3ncnc(N4CCOCC4)c3c2C)cc1OC
107,COc1ccc(NC(=O)c2ccc(C3Nc4ccccc4S(=O)(=O)N3)cc2)cc1Cl (centres undefined)
98,COCCNC(=O)C1CCC(CNS(=O)(=O)c2ccc3c(c2)CC(C)N3C(=O)C2CC2)CC1 (centres undefined)
109,CCCCNC(=O)CSc1nc2ccccc2n1S(=O)(=O)c1ccc(Br)cc1
108,CCS(=O)(=O)c1c(S(=O)(=O)CC)c2ccc(C(C)=O)cn2c1C(=O)c1ccccc1
102,CCN(CC)Cc1c(C(=O)OC)nnn1-c1nonc1N
114,CCCOC(=O)CCCCC1SCC(NC(=O)c2ccccc2)C1NC(=O)c1ccccc1 (centres undefined)
110,Cc1ccccc1S(=O)(=O)Nc1ccc2oc3c(c2c1)CC(C(C)(C)C)CC3 (centres undefined)
110,O=C1C(=O)N(c2ccccn2)C(c2cccnc2)/C1=C(/O)c1cccc(Br)c1 (centres undefined)
102,CCOC(=O)c1[nH]c(C)c(CCC(=O)N(CC)CC)c1C
113,CSc1ccc([C@@H]2[C@@H](C(=O)C34CC5CC(CC(C5)C3)C4)N3c4ccccc4C=C[C@@H]3C2(C#N)C#N)cc1
103,CCC(=O)Nc1cccc(-c2noc(C3CCCN(C(=O)c4ccc(OC)c(OC)c4)C3)n2)c1 (centres undefined)

Three entries from above, comma-delimited.
Compound,GIV Gai3 FP
Cc1nc(-c2cc(S(=O)(=O)Nc3ccc(F)c(Cl)c3)c(C)s2)sc1C,99
COc1ccc(CNC(=O)c2cc3cc4ccc(Cl)cc4nc3o2)c(OC)c1,114
COCCNC(=O)C1CCC(CNS(=O)(=O)c2ccc3c(c2)CC(C)N3C(=O)C2CC2)CC1 (centres undefined),98
